Compound activity (PubChem BioAssay)
CtBP-E1A blk – blocks the CtBP interaction with E1A. 340,000 compounds, 0.49% hits. AlphaScreen GST-E1A/His-CtBP binding, 1536-well; hits give low values; control for the full effect not named in the record. activity change, % (test concentration not listed); in the data active means activity change below about -65%; inconclusive means about -30% to -65%; inactive means above about -30%; also: % is scaled to controls: 0 for no effect and ±100 for the full control effect
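In 5 uL wells, 23 nL compound meets equimolar GST-E1A and His-CtBP (5X stock 125 nM each) for 2 h, 37 °C. Beads (5X, 50 ug/mL) then 1 h, 37 °C, dark.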
D2 agonist – agonists of human D2 dopamine receptor (beta-arrestin); AID 624465; activation, % (test concentration not listed); P14416; 360,000 compounds, 0.084% hits; DiscoveRx PathHunter D2 beta-arrestin, luminescence, 90 min; 100% = 57 uM dopamine signal; in the data active = activation above about 40%; inconclusive = about 15% to 40%; inactive = below about 15%; also: compound concentration not given in the record; the text of the record calls up to 30% inactive
Target sequence (P14416 whole entry, looked up): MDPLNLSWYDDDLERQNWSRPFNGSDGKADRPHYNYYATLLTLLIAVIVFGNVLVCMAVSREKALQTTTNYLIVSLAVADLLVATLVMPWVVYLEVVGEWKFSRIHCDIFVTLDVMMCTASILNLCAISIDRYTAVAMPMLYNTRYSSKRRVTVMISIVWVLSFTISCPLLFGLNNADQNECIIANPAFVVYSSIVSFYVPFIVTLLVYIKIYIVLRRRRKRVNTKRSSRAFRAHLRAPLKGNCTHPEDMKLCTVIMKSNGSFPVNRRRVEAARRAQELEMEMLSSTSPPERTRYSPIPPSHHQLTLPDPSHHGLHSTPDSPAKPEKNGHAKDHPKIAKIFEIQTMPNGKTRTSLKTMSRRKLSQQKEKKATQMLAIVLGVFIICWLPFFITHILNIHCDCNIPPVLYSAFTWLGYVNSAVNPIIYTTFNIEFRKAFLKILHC
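Agonist mode: compounds alone added to overnight-plated D2 PathHunter cells for 90 min at 37 C, with 57 uM final dopamine (EC100) defining full response. Beta-arrestin recruitment detected by chemiluminescent reagent, read after 1 h at ambient temperature.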
D2 potentiator – potentiates the human D2 dopamine receptor allosterically | P14416 | DiscoveRx D2 beta-arrestin cells, luminescence, 90 min; 100% = 57 uM dopamine signal | 360,000 compounds, 0.23% hits | AID 624464 | potentiation, % (no concentration beside the values); active = potentiation of 50% or more; inconclusive = 30% to 50%; inactive = 30% or less;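 also: compound concentration not given in the record; tested on top of an EC20 dose of dopamine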
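PathHunter D2 cells, attached overnight at 37 deg C, received compound in DMSO plus dopamine at EC20 (50 nM final) for 90 min at 37 deg C. Beta-arrestin recruitment was read as luminescence after 1 h with detection reagent at ambient temperature.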
gsp agonist – activates gsp, the McCune-Albright syndrome mutation; gsp mutant cells, cAMP HTRF, 30 min; control for the full effect not named in the record; Potency, µM (titrated, usually from 76.9 µM), for inactives: top-dose activation (cAMP increase), usual class: activators; 340,000 compounds, 0.13% hits; AID 624287; active = well fitted activation curve with a large enough effect; inconclusive = small, poorly fitted or top-dose-only effect, or another doubt; inactive = no such curve, though single readings can be large or run the other way; cell line not stated here;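 also: phosphodiesterase inhibitor Ro 20-1724 added with compounds to block cAMP breakdown; potency is read from the fitted curve at half-maximal effect; nearly all actives have a fitted effect of over 60% in size; about a fifth of the inactives were tested at one dose only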
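Cells in DMEM/10% FBS with G418 were pretreated with compounds in DMSO plus […] (300 uM stock) for 30 min at 37C. cAMP was measured by HTRF (cAMP-d2 plus anti-cAMP antibody-K) after 30 min at room temperature.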
gsp antag – antagonists of gsp mutant (McCune-Albright syndrome). gsp-mutant cells, cAMP HTRF, 30 min; control for the full effect not named in the record. Potency, µM (highest dose often 76.9 µM), for inactives: at the highest dose activity change, negative = inhibition, usual class: inhibitors. 340,000 compounds, 0.4% hits; active = falling curve of any shape with a large fitted effect; inconclusive = falling curve, mostly with a smaller effect; inactive = flat or rising curve; cell line not stated here;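 also: intracellular cAMP measured with PDE inhibitor Ro 20-1724 present during compound exposure; potency is read from the fitted curve at half-maximal effect; % is scaled to controls: 0 for no effect and ±100 for the full control effect; nearly all actives have a fitted effect of over 65% in size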
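Measurement of cellular cAMP by homogeneous time-resolved fluorescence following a 30 min compound exposure at 37C. The PDE inhibitor […] was present throughout; the assay buffer was DPBS with 0.05% BSA and 0.005% Tween 20.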
Six1-Eya2 blk – inhibitors of human Six1/Eya2 interaction; activity change, % (test concentration not listed); 360,000 compounds, 0.56% hits; Q15475+O00167; AlphaScreen GST-Six1/His-Eya2 binding, biochemical; hits give low values; control for the full effect not named in the record; in the data active = activity change below about -65%; inconclusive = about -30% to -65%; inactive = above about -30%; also: % is scaled to controls: 0 for no effect and ±100 for the full control effect
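Homogeneous AlphaScreen proximity assay pairing GST-Six1 with His-tagged Eya2 (added as 5X mix: 250 nM and 500 nM) in 50 mM Tris pH 8.0, 300 mM NaCl, 1 mM TCEP. Glutathione donor and nickel acceptor beads; 1 h, 37 °C, dark.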
* = called active by the depositor; ? = inconclusive; / = no result given; [ ] = remark or other dose.

SMILES | CtBP-E1A blk | D2 agonist | D2 potentiator | gsp agonist | gsp antag | Six1-Eya2 blk
CN(C)C(=O)c1cc(C(=O)c2ccccc2C(F)(F)F)c[nH]1 | 0 | 1.0 | -11 | -1%[15.4 µM] | 9% | 4
Cc1csc(N/N=C/c2ccccn2)n1 | ? | -0.6 | -11 | -23% | 1% | ?
CSC1=C(C#N)C(c2ccncc2)C(C(=O)Nc2ccccc2)=C(C)N1 (stereo not drawn) | 9 | -2.3 | -7 | ? | 4% | -5
Cc1ccc2c(C)c(C(=O)N(C)Cc3nccn3C)oc2c1C | -5 | -4.0 | -23 | -2% | -18% | 3
Cn1cc(Cl)c(C(=O)NC2CCCCCC2)n1 | -3 | -2.7 | -3 | -40%[inhibitor] | 2% | -5
COC(=O)c1ccc(COC(=O)c2ccc(CS(=O)(=O)c3ccc(C)cc3)cc2)cc1 | 4 | -1.0 | -5 | -10% | -3% | 3
CN(C)/C=C1/OC(=O)C(C#N)=C1c1ccc(Cl)cc1 | / | -2.6 | -3 | 1% | -12% | 2
Cc1cc(C)c(OCC(=O)Nc2cccc(O)c2)cc1C | -2 | -0.8 | -4 | -1% | -9% | 2
O=C(COc1ccccc1)NCC(c1cccs1)N1CCOCC1 (stereo not drawn) | 2 | 2.2 | -15 | -32%[inhibitor] | 2% | 2
NC(=O)c1sc(-c2ccsc2)cc1NS(=O)(=O)c1ccc(C(F)(F)F)cc1 | -8 | -0.4 | -5 | 2%[15.4 µM] | ? | 0
O=C(NNc1ccnc2cc(Cl)ccc12)C1CCCCC1 | 2 | 2.3 | -19 | 9%[15.4 µM] | -31% | 8
Cc1cccc(C(=O)NCc2nnc(SCC(=O)NC3CCCC3)n2C)c1 | 2 | -4.1 | 2 | -2% | 9% | 3
CCOc1ccc(OCCn2c(SCC(=O)O)nc3ccccc32)cc1 | 9 | 4.2 | -8 | ? | -23% | -30
CCc1ccc2nc3sc(C(=O)O)cc3cc2c1 | -2 | -1.0 | -4 | -10%[15.4 µM] | ? | -3
Cc1cc(C)cc(OCC(=O)Nc2cccc(S(=O)(=O)NC3=NCCC3)c2)c1 | -6 | -3.8 | 1 | -83%[inhibitor] | 5% | -3
COc1ccc(OC)c(NC(=O)COc2coc(CN3CCCc4ccccc43)cc2=O)c1 | -6 | -2.2 | 2 | 2%[15.4 µM] | -3% | -12
COc1cccc(NC(=O)C2CC(=O)n3cnnc3S2)c1 (stereo not drawn) | 0 | -4.2 | -6 | -10% | 21% | 24
C/C(=N\NC(=O)c1cc(C2CC2)nc2ccccc12)c1ccc(C)s1 | -8 | -1.2 | -4 | -30% | 1% | 1
C=C(Cl)COc1ccc2c(CC)cc(=O)oc2c1 | 17 | -3.0 | -9 | 8% | 5% | 4
Cc1ccc(C)c(NC(=O)CSc2nc(C)cs2)c1 | 8 | 1.5 | -4 | 1% | 0% | -1
CC1Cc2ccccc2C(CCc2ccccc2)=N1 (stereo not drawn) | / | -3.5 | -14 | 0% | 1% | 4
O=C(c1cccs1)N1CCN(S(=O)(=O)N2CCOCC2)CC1 | 0 | -2.2 | -10 | 8% | 13% | 0
Cc1ccc(-c2noc(-c3cc(C(C)(C)C)nn3Cc3ccccc3)n2)cc1 | / | -1.9 | -17 | 3% | 5% | 6
CCN(Cc1ccccc1)C(=O)CCS(=O)(=O)c1ccc2c(c1)CCN2C(C)=O | -3 | 1.7 | -8 | -72%[inhibitor] | 6% | 5
CCCN(C(=O)COC(=O)c1nc2nccc(C)n2n1)C1CCS(=O)(=O)C1 (stereo not drawn) | 3 | -3.4 | -8 | -1%[15.4 µM] | -5% | -7
O=C(Nc1ccc(Br)cc1)c1cccc(OC(=S)N2CCOCC2)c1 | 1 | 1.8 | -5 | 0%[15.4 µM] | -23% | -2
CC1=C(C(=O)NCCN2CCN(C)CC2)C2(CCC(C)CC2)OC1=O (stereo not drawn) | -3 | -0.9 | -7 | 8% | 8% | 6
Cc1ccc(SCC(=O)NCCSCc2ccccc2)cc1 | 4 | -2.1 | -10 | -16% | 12% | -9
N/C(=N\OC(=O)C1CCCCC1)c1cccc([N+](=O)[O-])c1 | -9 | 3.5 | 5 | 0% | -9% | -4
O=C(NC1CCCCC1)c1ccc2c(c1)OCO2 | 9 | 2.1 | -1 | -2% | 11% | -4

2 records picked at random from those above, as already listed:
SMILES | CtBP-E1A blk | D2 agonist | D2 potentiator | gsp agonist | gsp antag | Six1-Eya2 blk
N/C(=N\OC(=O)C1CCCCC1)c1cccc([N+](=O)[O-])c1 | -9 | 3.5 | 5 | 0% | -9% | -4
COc1ccc(OC)c(NC(=O)COc2coc(CN3CCCc4ccccc43)cc2=O)c1 | -6 | -2.2 | 2 | 2%[15.4 µM] | -3% | -12

Next section
SMILES | CtBP-E1A blk | D2 agonist | D2 potentiator | gsp agonist | gsp antag | Six1-Eya2 blk
Cc1occc1C(=O)N/N=C/C(Br)=C/c1ccccc1 | ? | 0.6 | -7 | -12%[15.4 µM] | ? | -11
O=C(CN(Cc1cccs1)S(=O)(=O)c1ccc(S(=O)(=O)N2CCCCC2)cc1)Nc1ccccc1 | -1 | -3.9 | -12 | 19% | 15% | 11
Cc1ccccc1/C=N/n1c(C2CCCCC2)n[nH]c1=S | 0 | -5.2 | -9 | -36%[inhibitor] | -11% | -7
CCOC(=O)[C@@H]1[C@H]2COc3ccc(Br)cc3[C@H]2N2C(=O)N(c3ccc(F)cc3)C(=O)[C@@]12C | 8 | -6.9 | -3 | ? | -12% | 1
CN1C(=O)N(C)C2C1N(C)S(=O)(=O)N2C (stereo not drawn) | 11 | -1.1 | -15 | -1% | 3% | 1
Cn1nc2c3ccccc3n(Cc3ccccc3)c2nc1=S | -10 | 1.3 | -4 | 22% | 5% | 6
CC(C)CNC(=O)C1(C)CCCN1C(=O)c1cncc(Br)c1 (stereo not drawn) | 4 | -2.7 | -2 | / | / | -2
C(=N\N1CCN(c2ccccc2)CC1)/c1ccccc1 | -2 | 1.3 | -9 | -1%[15.4 µM] | 5% | -18
COc1ccccc1NC(=O)CCC(=O)O | 0 | -2.7 | -23 | -37%[inhibitor] | 11% | 5
Cc1cccc(C)c1NC(=O)C1CCCN1S(=O)(=O)c1ccccc1 (stereo not drawn) | 4 | 2.8 | -8 | ? | 11% | -4
COc1ccc(CC(=O)NCc2n[nH]c(=S)n2C)cc1 | 5 | -7.7 | -3 | 10% | 4% | 3
Cc1ccc(Nc2cc(-n3cccn3)ncn2)c(C)c1 | 7 | 1.7 | -10 | -2% | 10% | -3
COc1cccc(OC(C)c2ccnc3nc(/N=C/N(C)C)nn23)c1 (stereo not drawn) | -1 | -3.1 | 8 | 3% | 2% | 0
O=C(CNCc1ccccn1)Nc1cc(S(=O)(=O)N2CCCCC2)ccc1Cl | -88* | ? | -12 | -46%[inhibitor] | -5% | -86*
C=CCNC(=O)/C(C#N)=C/c1ccc(C)o1 | 3 | -0.2 | -1 | 13% | 4% | 0

Shown with two lines to a compound: seven of the compounds above.
Under each structure – CtBP-E1A blk | D2 agonist | D2 potentiator | gsp agonist | gsp antag | Six1-Eya2 blk
Cc1ccccc1/C=N/n1c(C2CCCCC2)n[nH]c1=S
    0 | -5.2 | -9 | -36%[inhibitor] | -11% | -7
CCOC(=O)[C@@H]1[C@H]2COc3ccc(Br)cc3[C@H]2N2C(=O)N(c3ccc(F)cc3)C(=O)[C@@]12C
    8 | -6.9 | -3 | ? | -12% | 1
CN1C(=O)N(C)C2C1N(C)S(=O)(=O)N2C (stereo not drawn)
    11 | -1.1 | -15 | -1% | 3% | 1
Cn1nc2c3ccccc3n(Cc3ccccc3)c2nc1=S
    -10 | 1.3 | -4 | 22% | 5% | 6
CC(C)CNC(=O)C1(C)CCCN1C(=O)c1cncc(Br)c1 (stereo not drawn)
    4 | -2.7 | -2 | / | / | -2
C(=N\N1CCN(c2ccccc2)CC1)/c1ccccc1
    -2 | 1.3 | -9 | -1%[15.4 µM] | 5% | -18
COc1ccccc1NC(=O)CCC(=O)O
    0 | -2.7 | -23 | -37%[inhibitor] | 11% | 5

(listing goes on)
SMILES | CtBP-E1A blk | D2 agonist | D2 potentiator | gsp agonist | gsp antag | Six1-Eya2 blk
O=C(O)CN1C(=O)/C(=C\C(Br)=C\c2ccccc2)SC1=S | -5 | -4.1 | 6 | -4%[15.4 µM] | -15% | -18
CCCC(=O)Nc1ccc(NC(=O)c2cccs2)cn1 | -4 | -0.1 | -14 | -22% | 12% | -2
Cc1ccc(N(c2ncnc(N)c2[N+](=O)[O-])C2CCCCC2)cc1 | -6 | -2.5 | -5 | -7% | -4% | -10
Cc1cc(=O)n2[nH]c(-c3cccc(Cl)c3)cc2n1 | / | 0.1 | -16 | 21% | -13% | -6
O=C(CSc1nnc(COc2ccc(Cl)cc2)o1)Nc1ccc(N2CCOCC2)cc1 | -17 | 0.2 | 1 | -1% | 2% | -4
CCOC(=O)C1(C)CCCCN1C(=O)c1ccoc1 (stereo not drawn) | -1 | -5.4 | -11 | / | / | 1
COc1cc(C(=O)Nc2ccncc2)cc(OC)c1OC | 9 | -1.4 | 10 | -15% | 3% | 0
COc1cccc(-c2nc(NCc3ccccc3)c3ccccc3n2)c1O | -6 | -4.3 | -12 | -4% | -4% | -7
Cc1ccc(/C=C2/SC(=S)N(CCCC(=O)Nc3cc([N+](=O)[O-])ccc3O)C2=O)cc1 | 9 | -2.8 | -7 | 4% | -9% | 9
Fc1ccc(C2c3[nH]c4ccccc4c3CCN2CCCn2cccn2)cc1 (stereo not drawn) | -9 | -1.4 | -8 | 20%[15.4 µM] | -3% | -8
O=C(NCC1CCCO1)Nc1ccccc1 (stereo not drawn) | 4 | 0.3 | -19 | 8% | 11% | 5
O=C(NCc1ccccc1)NC1(C(=O)N2CCN3CCCC3C2)CCCCC1 (stereo not drawn) | -2 | -2.0 | -19 | 4% | 5% | 6
Cc1cc(C(=O)NC2CC(C)(C)Cc3c2cnn3-c2ccccc2)n(C)n1 (stereo not drawn) | -1 | -0.5 | -2 | -2% | -14% | 0
CC(=O)Nc1ccc(S(=O)(=O)N2CCC3(CC2)CC(=O)c2ccccc2O3)cc1 | -15 | -0.4 | -9 | -7% | -4% | -2

An unsorted share of the library; about 1.4% have a hit in one of these screens.
